Screening data as filed in PubChem BioAssay.
HSD17B inh = blocks hydroxysteroid 17-beta dehydrogenase activity | Q99714 | recombinant HSD17B10, NADH fluorescence kinetic; many of its hits are not listed in these tables | Potency, µM (top dose mostly 57.1 µM), for the others: at the top dose activity change, negative = inhibition, usual class: inhibitors | actives 7.6% (n = 75,000); active = well fitted inhibition curve with a large enough effect; inconclusive = small, poorly fitted or top-dose-only effect; inactive = no such curve, though single readings can be large or run the other way;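 note: the protocol describes HADH2 (HSD17B10) and not the HSD17B4 of the title; nearly all actives have a fitted effect of over 70% in size; most hits overshoot -100% by far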
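20 nM HADH2, pH 9.0 Tris/Tween; cpd preinc 15 min RT; start w/ 1 mM NAD+ + 90 uM b-hydroxybutyryl-CoA; kinetic fluor ex360/em450 q30s x 4 min; delta last-first.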
Starred values were filed as active, the others as inactive; ? = inconclusive; & = joins results of further samples; [ ] = dose if it differs, or a comment. % is set by controls: 0 for no effect and ±100 for the full control effect; potency is the fitted concentration of half-maximal effect. An excerpt; rates above refer to the full screens.

A first look, 7 compounds:
compound	HSD17B inh
Cc1ccc(C(=O)N2Cc3ccccc3CC2C(=O)O)cc1 (stereo not drawn)	1.3%
O=C(O)CCNS(=O)(=O)c1ccc(Oc2ccccc2)cc1	10.4%
N#Cc1cn(CC(=O)O)c2ccccc12	8.8%
COc1ccc(NC(=O)CCCCn2c(=O)[nH]c3ccccc3c2=O)cc1	-11.7%
O=C(O)COc1ccccc1Cc1ccccc1	4.7%
Cc1ccc(CCNS(=O)(=O)c2cnc[nH]2)cc1	-2.8%
Cc1ccc2nc(-c3cccc(-c4nc5ccc(C)cc5o4)n3)oc2c1	?

The list itself, from the start:
compound	HSD17B inh
Cc1ccc(C(=O)N2Cc3ccccc3CC2C(=O)O)cc1 (stereo not drawn)	1.3%
O=C(O)CCNS(=O)(=O)c1ccc(Oc2ccccc2)cc1	10.4%
N#Cc1cn(CC(=O)O)c2ccccc12	8.8%
COc1ccc(NC(=O)CCCCn2c(=O)[nH]c3ccccc3c2=O)cc1	-11.7%
O=C(O)COc1ccccc1Cc1ccccc1	4.7%
Cc1ccc(CCNS(=O)(=O)c2cnc[nH]2)cc1	-2.8%
Cc1ccc2nc(-c3cccc(-c4nc5ccc(C)cc5o4)n3)oc2c1	?
COc1cc(S(=O)(=O)N2CCOCC2)ccc1NC(=O)CSc1nnc(N)s1	-11.0%
CCCCNC(=O)NS(=O)(=O)c1ccc(NS(=O)(=O)c2ccccc2)cc1	-3.1%
CCc1c(O)nc(SCC(=O)Nc2ccccc2C)[nH]c1=O	3.6%
COc1ccc(C)cc1S(=O)(=O)N1CCC(C(=O)N2CCOCC2)CC1	-17.3%
CC(C)(C)n1nnnc1C(c1cccc(C(F)(F)F)c1)N1CCOCC1 (stereo not drawn)	-1.7%
O=C1CCC[C@H]2OC12[C@@H](O)CCc1ccccc1 (stereo partly drawn)	3.0%[11.4 µM]
CCOc1ccccc1N1CCN(Cc2ccc(Br)s2)CC1	-0.6%
CC1CC(C)CN(CCCNC(=O)Cc2c(C(=O)O)[nH]c3ccccc23)C1 (stereo not drawn)	?
CC1CCc2nc(NC(=O)c3cc(C(C)(C)C)nn3C)sc2C1 (stereo not drawn)	-0.5%
Cc1cc(C)nc(N2CCCC(C(=O)NCCC3=CCCCC3)C2)n1 (stereo not drawn)	-4.5%
Cc1onc(-c2c(F)cccc2Cl)c1C(=O)NCC1COc2ccccc2O1 (stereo not drawn)	5.8%
CCCCSc1nc(C)c(C(C)=O)cc1C#N	-4.7%
O=C1C[C@@H](O)[C@@H](O)[C@@H]2[C@H]3C(=O)N(c4ccc(F)cc4F)C(=O)[C@@H]3CC[C@H]12	3.3%[11.4 µM]
COc1ccccc1-c1nnc(NC(=O)C(C)SC2=NCCS2)s1 (stereo not drawn)	-10.0%
COc1ccc(-n2c(SCC(=O)Nc3nccs3)nc3sc4c(c3c2=O)CCN(C)C4)cc1	8.5%
CCOc1ccc(C2CC(=O)NC3=C2C(=O)CCC3)cc1 (stereo not drawn)	1.0%
C#CCSc1n[nH]c(-c2ccco2)n1	1.7%[11.4 µM]
Cc1ccsc1C1C(C(=O)O)c2ccccc2C(=O)N1C (stereo not drawn)	12.4%
COc1cccc(-c2nc(CS(=O)(=O)CC(=O)NCc3ccccc3)c(C)o2)c1	-9.9%
CCc1c(C(=O)Nc2nnc(C3CC3)s2)csc1C	10.7%
CCCN(CCO)Cc1cccc(Oc2ccccc2)c1	?
CCCCCCn1c2c(c(=N)c3c1CCC3)CCC2	3.3%
Cc1ccccc1Nc1nc(N)nc(COC(=O)C(NC(=O)c2ccco2)C(C)C)n1 (stereo not drawn)	-6.3%
CCOC(=O)c1ccc(NS(=O)(=O)c2cnc[nH]2)cc1	7.0%
O=C(CCC(=O)N(CC(=O)NC1CCCC1)Cc1ccc2c(c1)OCO2)Nc1ccccn1	-1.5%
Cc1cc(C)c2cc(C(c3nnnn3CC3CCCO3)N3CCN4CCCC4C3)c(=O)[nH]c2c1 (stereo not drawn)	?
O=c1cc(-c2ccccc2)oc2cc(O[C@@H]3O[C@H](CO)[C@@H](O)[C@H](O)[C@H]3O)c(O)c(O)c12	?
CC(C(=O)O)N1C(=O)CSC1=S (stereo not drawn)	-7.4%
COc1ccc(N2CCCn3c2nc2c3c(=O)n(CCc3ccccc3)c(=O)n2C)cc1	?
CCC(=O)NCCSc1c[nH]c2ccccc12	?
CC(C)C(NC(=O)OCc1ccccc1)C(=O)NCC(=O)OC(C)(C)C (stereo not drawn)	-1.1%
C[C@@H](c1ccccc1)N1C(=O)[C@H]2[C@H]3[C@H](O)[C@H](O)C/C(=N/OC[C@@H](O)COCc4ccco4)[C@H]3CC[C@@H]2C1=O	-3.2%[11.4 µM]
CCOc1cc2[nH]c(=O)n(CC3CCC(C(=O)NCCC(C)C)CC3)c(=O)c2cc1OCC (stereo not drawn)	-1.4%
COC(=O)c1ccccc1NC(=O)c1ccccc1SC	2.4%
COc1ccc(N(CC(=O)Nc2ccccc2SC)S(C)(=O)=O)cc1OC	-8.2%
COC(=O)c1cccc(C23CC4(C2)[C@H](CN(C)[C@@H]4c2ccccc2)C3c2ccccc2)c1 (stereo partly drawn)	-18.9%
CCOC(=O)N1CCC(NC(=O)Cn2cc3c(n2)CCC(C)C3)CC1 (stereo not drawn)	-6.4%
COc1ccc(NC(=O)C2CCCN2S(=O)(=O)c2ccc(F)cc2)cc1 (stereo not drawn)	0.9%
COc1ccccc1CNC(=O)c1cc2c(=O)n(C)c3ccccc3c2n1C	-1.4%
CC(C)(C)SCCNC(=O)COc1ccccc1	5.4%
CCOc1ccc(NC(=O)Nc2cc(C)ccc2OC)cc1	-1.1%
Cc1c(Br)cc(C(=O)N2CCN(CCO)CC2)c(C)c1C	5.6%
N#CCSc1nc2ccccc2c(=O)n1CCC(=O)NC1CCCCC1	-1.4%
C=C(C)C(C)(C#CCN1CCCC1)OC(C)=O (stereo not drawn)	7.0%
O=C(COc1ccc(Cl)cc1)NCc1nnc(SCC(=O)NCCc2ccccc2)o1	5.2%
COc1cc(-c2nnc(SCC(=O)c3cc(C)n(CC4CCCO4)c3C)o2)cc(OC)c1OC (stereo not drawn)	-11.3%
CCCCCCCCCCCC1=C(O)C(=O)C=C(O)C1=O	3.16µM*
CCOC(=O)COc1ccc2nsnc2c1	?
O=C(CN1C(=O)c2ccccc2S1(=O)=O)N1CCN(c2ccc(F)cc2)CC1	11.5%
N#C/C(=C(/O)CN1CCOCC1)c1nc(-c2ccccc2)cs1	-0.9%
CN1CCCN(CC(O)COCc2cccs2)CC1 (stereo not drawn)	10.8%
Cn1nnnc1SCC(=O)c1cccs1	-6.3%
CCCCCCNC(=O)CCNC(=O)c1cc(OC)c(OC)c(OC)c1	3.6%

2 records picked at random from the list so far, as already listed:
compound	HSD17B inh
CC(C)C(NC(=O)OCc1ccccc1)C(=O)NCC(=O)OC(C)(C)C (stereo not drawn)	-1.1%
Cc1cc(C)c2cc(C(c3nnnn3CC3CCCO3)N3CCN4CCCC4C3)c(=O)[nH]c2c1 (stereo not drawn)	?

(cont.)
compound	HSD17B inh
Cc1ccc(-c2ccc(CCC(=O)O)n2NC(=O)c2cccs2)cc1	1.9%
CCOC(=O)CN1CC23C=CC(O2)C(C(=O)Nc2ccc(OCC)cc2)C3C1=O (stereo not drawn)	10.3%
CCN(C1CCS(=O)(=O)C1)S(=O)(=O)c1cccs1 (stereo not drawn)	3.1%
COCCN1CCn2c(nc3cc(NC(=O)NC4CCCCC4)ccc32)C1	20µM*
Cc1ccc(C(C(=O)NC2CCCCC2)N(Cc2cccnc2)C(=O)C2COc3ccccc3O2)o1 (stereo not drawn)	9.7%
COC(=O)C1=C(N)Oc2cc(C)[nH]c(=O)c2C1c1cc(OC)c(OC)c(OC)c1 (stereo not drawn)	14.4%
Cc1cnc(CNc2cc(-c3cccc(C#N)c3)ncn2)cn1	?
N#CC1=C(SCC(=O)Nc2cccc3cccnc23)NC(=O)C(C#N)C12CCCCC2 (stereo not drawn)	-31.8%
O=C(Nc1ccc(Cl)cc1F)C1CCN(S(=O)(=O)c2cccnc2)CC1	3.6%
Cc1ccc2c(CC(=O)Nc3sccc3C(N)=O)coc2c1	4.8%
CCCNC(=O)c1ccc(CNc2c(N3CCC(C(=O)OCC)CC3)c(=O)c2=O)cc1	7.2%
CC(=O)Nc1ccc(CN2CCN(c3cccc(C(F)(F)F)c3)CC2)cc1	-2.0%
COc1ccccc1CN1CCC2(CC1)CCN(S(=O)(=O)c1ccccc1)CC2	4.3%
Cn1cccc1-c1nc2ccc(NC(=O)c3ccco3)cc2[nH]1	-3.0%
COCCNC(=O)[C@H]1C[C@@H]1[C@H](NP(=O)(c1ccccc1)c1ccccc1)c1ccccc1	2.3%
Cc1cc(NC(=O)c2ccccc2Oc2ccccc2)no1	2.4%
O=C1c2ccccc2C(Nc2ccc(S(=O)(=O)N3CCCCCC3)cc2)N1Cc1ccco1 (stereo not drawn)	-13.1%
CNc1oc(C)nc1S(=O)(=O)c1ccc(C)cc1	0.4%
CN(c1cc(=O)n2ccccc2n1)C1CCCCC1	-4.9%
COCCN1Cc2cccc(C(=O)NCc3ccc4c(c3)OCO4)c2C1=O	13.7%
Cc1nc(NCc2ccco2)nc2c1C(=O)CC(C)C2 (stereo not drawn)	-6.4%
CCCn1c(C)nc2c(c1=O)c1nc3ccccc3nc1n2-c1ccc2c(c1)OCCO2	?
Cc1ccc(-c2nc(NC(=O)CSc3nnnn3-c3ccccc3)ns2)cc1	270.3%[activator]
Cc1nc2oc3c(NCc4ccccc4)ncnc3c2c2c1COC(C)(C)C2	31.6µM*
COC(=O)CN1C(=O)CC(C)(C)Sc2ccccc21	-0.7%
Nc1ccc(-c2cnc(-c3ccc(N)cc3)nc2)cc1	?
Cn1c(SCC(=O)N2CCOCC2)nc2cccnc21	4.6%
COc1ccc(C(=O)Nc2cccc(N(C)S(C)(=O)=O)c2)cc1OC	2.1%
Cc1c(Cl)cccc1N1C(=O)CC(N(O)c2ccccc2)C1=O (stereo not drawn)	11.9%
COc1ccccc1N1CCN(C(=O)Cn2nnc(-c3cccs3)n2)CC1	-3.0%

Going on with the list.
Molecule	HSD17B inh
O=C(O)COc1c(Cl)cc(Cl)c2cccnc12	4.3%[11.4 µM]
Cc1cc(C)n(-c2nc3ccccc3c(=O)n2OCC(=O)Nc2c(C)cccc2C)n1	2.0%
Cc1nc2nc(COc3ccccc3)[nH]n2c(=O)c1Cc1ccccc1	1.4%
CCOc1cc2[nH]c(=S)n(CCCN3CCCC3=O)c(=O)c2cc1OCC	-20.1%
Cc1nc2ncnn2c(Nc2ccc3c(c2)OCO3)c1Cc1ccccc1	-12.0%
Cc1nc2ccccc2c2oc(C(=O)NCCN3CCCCC3C)cc12 (stereo not drawn)	25.1µM*
C=CCC1(c2ccccc2)Oc2ccccc2-c2nc3cc(Cl)c(Cl)cc3nc21 (stereo not drawn)	-29.6%&-20.8%[11.4 µM]
CCOC(=O)c1c(N)c(C#N)cn1-c1ccccc1	0.0%
Cc1ccc2[nH]c(=O)c(CNC(C)C)cc2c1	?
OC(CNCc1ccco1)Cn1c2ccccc2c2ccccc21 (stereo not drawn)	?
O=C1NC(c2cccnc2)C(C(=O)c2cccs2)C(O)(C(F)(F)F)N1 (stereo not drawn)	13.9%
Cc1nnc(SCC(=O)c2c(N)n(C)c(=O)n(C)c2=O)n1Cc1ccccc1	12.2%
CC(=O)NCC(=O)NC(C(=O)Nc1ccc2c(c1)OCCO2)c1ccc(C)cc1 (stereo not drawn)	-6.5%
COCCCNC(=O)CCN1C(=O)COc2ccccc21	11.0%
COc1ccc(CN(C(=O)CSc2nnc(-c3ccccc3F)o2)c2ccc(F)cc2)cc1	-9.0%
CC1(C)CC(=O)C2=C(C1)Oc1ncn(CCO)c(=N)c1C2c1ccccc1 (stereo not drawn)	3.3%
O=C(c1ccccc1)c1cccn1CC(=O)N1CCCCCC1	4.7%
CCCCCCn1c(N2CCC(C)CC2)nc2c1c(=O)[nH]c(=O)n2C	-3.7%
O=C(C1CCN(S(=O)(=O)c2ccc(Br)s2)CC1)N1CCc2ccccc21	5.7%
COC(=O)c1sccc1NC(=O)c1ccc2c(c1)OCO2	-25.4%
Cc1ccnc(NC(=O)C2CCCN(S(=O)(=O)c3cnc[nH]3)C2)c1 (stereo not drawn)	14.1%
Cc1cc(Nc2ccc(F)cc2Cl)n2nc(C)nc2n1	2.0%
Cc1cc(C)n(-c2ccc(C(=O)OCC(=O)Nc3ccc(S(=O)(=O)N4CCOCC4)cc3)cc2)n1	?
CCN(CC)C(=O)c1ccc(O)c(OC)c1	-3.8%
CC(=O)N(c1ccc2oc(=O)sc2c1)S(=O)(=O)c1cccs1	?
CC(=O)Oc1ccc(CCC(C)OC(C)=O)cc1 (stereo not drawn)	0.1%
CC(C)=CCC/C(C)=C/CO/N=C1/C[C@@H](O)[C@@H](O)[C@@H]2[C@@H]3C(=O)N(Cc4ccc5c(c4)OCO5)C(=O)[C@H]3CC[C@@H]12	0.4%[11.4 µM]
CC1(C)OC(=O)C(=CNn2cnc3ccccc3c2=O)C(=O)O1	1.7%
CC(=O)Oc1ccc2occ(C(=O)c3cccs3)c2c1	-2.0%
COc1cc(S(=O)(=O)NC2CCCC2)ccc1Cl	-4.9%
Cc1ccnc(NC(=O)CCc2c(C)nc3ncnn3c2C)c1	-8.9%
Cc1cccc(OCc2nnc(SCC(=O)Nc3sc(C)c(C)c3C#N)n2C)c1	16.3%
COc1ccc(CN(C(=O)c2oc3ccccc3c2C)C2CCS(=O)(=O)C2)cc1 (stereo not drawn)	-0.7%
